TRPV1 PAM = human TRPV1 potentiation | potentiation, % at 8.33 µM | TRPV1-expressing cells, Fluo-8 calcium influx, capsaicin EC20 potentiation; host cell line not named in the record; control for the full effect not named in the record | AID 540277 | actives 0.02% (n = 320,000) | Q8NER1; active means potentiation above 80%; inconclusive means 30% to 80%; inactive means below 30%; further: 0% is about no effect
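TRPV1-expressing cells were cultured overnight at 35.5C and loaded with Fluo-8 calcium dye for 40 to 90 min at room temperature. After a 10 s baseline, compound was added and calcium influx was read kinetically for 3 min (ex 480/em 520 nm).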
gsp ag = activates gsp, the McCune-Albright syndrome mutation | gsp mutant cells, cAMP HTRF, 30 min; control for the full effect not named in the record | Potency, µM (series often up to 76.9 µM), inactives show at the top dose activation (cAMP increase), most hits filed as activators | actives 0.13% (n = 340,000) | AID 624287; active = well fitted activation curve with a large enough effect; inconclusive = small, poorly fitted or top-dose-only effect, or another doubt; inactive = no such curve, though single readings can be large or run the other way; cell line not stated here;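 further: phosphodiesterase inhibitor Ro 20-1724 added with compounds to block cAMP breakdown; potency means the concentration at half of the fitted maximal effect; nearly all actives have a fitted effect of over 60% in size; about a fifth of the inactives were tested at one dose only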
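Cells in DMEM/10% FBS with G418 were pretreated with compounds in DMSO plus […] (300 uM stock) for 30 min at 37C. cAMP was measured by HTRF (cAMP-d2 plus anti-cAMP antibody-K) after 30 min at room temperature.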
Menin-MLL FL inh = displaces fluorescein MLL peptide from human menin. 290,000 tested, under 10 active. AID 1766. Fluorescence polarization, fluorescein-MLL peptide displacement from menin. FP activity change, % at 61.4 µM; inconclusive = falling polarisation curve, or a change in total fluorescence; inactive = total fluorescence flat and polarisation flat or rising; no compound was filed as active; the % refers to the polarisation; negative = inhibition;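 further: % of control where 0% means no effect; inhibitors lower the polarisation; unlabelled MLL peptide was the positive control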
D2 potentiator = potentiates the human D2 dopamine receptor allosterically | P14416 | DiscoveRx D2 beta-arrestin cells, luminescence, 90 min; 100% = 57 uM dopamine signal | potentiation, % (test concentration not listed) | actives 0.23% (n = 360,000); active = potentiation of 50% or more; inconclusive = 30% to 50%; inactive = 30% or less;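 further: compound concentration not given in the record; tested on top of an EC20 dose of dopamine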
Target sequence (P14416 whole entry, looked up): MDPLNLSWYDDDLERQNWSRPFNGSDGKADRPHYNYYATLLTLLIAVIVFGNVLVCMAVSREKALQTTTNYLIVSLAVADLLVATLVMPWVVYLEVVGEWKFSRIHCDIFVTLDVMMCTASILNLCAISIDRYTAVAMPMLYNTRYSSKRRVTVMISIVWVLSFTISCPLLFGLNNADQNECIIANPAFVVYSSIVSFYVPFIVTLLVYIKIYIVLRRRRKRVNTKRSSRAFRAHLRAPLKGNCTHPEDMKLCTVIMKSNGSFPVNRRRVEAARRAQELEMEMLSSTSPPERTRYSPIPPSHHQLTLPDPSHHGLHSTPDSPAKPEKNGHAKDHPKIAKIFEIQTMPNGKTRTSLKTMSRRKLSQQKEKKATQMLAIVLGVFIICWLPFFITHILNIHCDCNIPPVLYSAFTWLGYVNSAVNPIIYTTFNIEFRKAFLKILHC
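PathHunter beta-arrestin assay in DiscoveRx D2 cells. Compounds were added with an EC20 of dopamine (50 nM final) for 90 min at 37 deg C. Luminescence was read 1 h after detection reagent, with 57 uM dopamine as the EC100 control.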
gsp antagonist = antagonizes gsp, the McCune-Albright syndrome mutation | Potency, µM (highest dose often 76.9 µM), without a hit: top-dose activity change, negative = inhibition, hits mostly inhibitors | actives 0.4% (n = 340,000) | gsp-mutant cells, cAMP HTRF, 30 min; control for the full effect not named in the record | AID 624288; active = falling curve of any shape with a large fitted effect; inconclusive = falling curve, mostly with a smaller effect; inactive = flat or rising curve; cell line not stated here;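 further: intracellular cAMP measured with PDE inhibitor Ro 20-1724 present during compound exposure; potency means the concentration at half of the fitted maximal effect; on the % scale 0 is the no-effect control and ±100 the full control effect; nearly all actives have a fitted effect of over 65% in size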
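HTRF cAMP read-out (cAMP-d2 plus anti-cAMP antibody-K in lysis buffer, 30 min RT). Before lysis, cells are exposed to compounds with […] for 30 min at 37C in DPBS containing Ca/Mg, BSA and Tween 20.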
ClpP mod = qHTS Assay for Activators of ClpP; AID 651965, 2013; ATP-dependent Clp protease proteolytic subunit (Bacillus subtilis (strain 168)), P80244; actives 1.9% (n = 340,000); purified B. subtilis ClpP, FRET peptide cleavage, 20 min; Potency, µM (doses to about 57.5 µM), without a hit: at the top dose activity change, negative = active; active = well fitted falling curve with a large enough effect; inconclusive = small, poorly fitted or top-dose-only effect; inactive = no such curve, though single readings can be large or run the other way; further: potency means the concentration at half of the fitted maximal effect; the source files actives as falling curves though it sought activators and does not explain the sign; nearly all actives have a fitted effect of over 65% in size; many hits overshoot -100%
Target sequence (P80244 whole entry, looked up): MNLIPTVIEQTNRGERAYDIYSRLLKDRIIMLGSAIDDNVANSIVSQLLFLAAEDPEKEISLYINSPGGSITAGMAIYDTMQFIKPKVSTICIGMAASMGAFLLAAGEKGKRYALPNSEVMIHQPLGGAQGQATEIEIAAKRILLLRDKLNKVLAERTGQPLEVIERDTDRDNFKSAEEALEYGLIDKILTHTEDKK
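FRET quenching reversal measured ClpP activation: 10 microg/mL B. subtilis ClpP at pH 8 with the FRET-FV decapeptide, read at 430 nm after 320 nm excitation. The 20-min minus 0-min signal was scaled between DMSO/no-enzyme wells and ADEP (5.8 microM final).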
Sfp inh = Sfp phosphopantetheinyl transferase inhibition; Q9F4F7; Biochemical Sfp PPTase activity, qHTS; Potency, µM, inactives show max response, negative = inhibition, actives largely listed as inhibitors; actives 3.5% (n = 310,000); AID 1490; active means well fitted inhibition curve with a large enough effect; inconclusive means small, poorly fitted or top-dose-only effect, or another doubt; inactive means no such curve, though single readings can be large or run the other way;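 further: the enzyme is Sfp with the accession as filed and its product quenches rhodamine fluorescence; potency means the concentration at half of the fitted maximal effect; 0% = enzyme reaction without inhibitor and -100% = no enzyme wells; top concentration of the series not given in the record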
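Sfp 15 nM + cpd, 15 min RT; start w/ rhodamine-CoA 5 uM, BHQ-2-YbbR 12.5 uM (final); 50 mM Hepes pH 7.6, 10 mM MgCl2, 0.01% NP-40, 0.01% BSA; read 525/598 nm at 0 and 30 min.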
Starred values were filed as active, the others as inactive; u = inconclusive; x = not tested or not shown; [ ] = dose if it differs, or a comment.

SMILES	TRPV1 PAM	gsp ag	Menin-MLL FL inh	D2 potentiator	gsp antagonist	ClpP mod	Sfp inh
Cc1c(C(=O)N2CCN(Cc3ccccc3)CC2)oc2c1C(=O)CCC2	-9	19%	x	-13	-4%	-0.8%	12%
COc1cc(OC)cc(C(=O)NC(=S)NNC(=O)[C@H]2C[C@@H]2c2ccccc2)c1	-6	12%[15.4 µM]	-1.1	-14	8%	x	-9%
CC(C)(C)c1ccc(S(=O)(=O)NCc2ccc(C(=O)N3CCOCC3)cc2)cc1	6	-9%	4.4	-1	-3%	0.8%	8%
CCCCc1ccc(NC(=O)CSC2=NN3CCCC(=O)N=C3S2)cc1	-2	21%[15.4 µM]	2.1	-4	-3%	x	19%
C=COC(=O)CSc1snc(SCC(=O)OC)c1C#N	-10	-2%	u	2	-10%[15.4 µM]	-8.7%	3%
COc1ccc(NC(=O)CC2SC(=O)NC2=O)cc1 (stereo unspecified)	3	-5%[15.4 µM]	-2.1	-18	9%	x	-23%
Cc1ccc(N/N=C2\CC(=O)c3ccccc32)cc1Cl	10	x	12	x	x	x	-14%
CC(=O)c1ccc(COC(=O)c2ccccc2NC(=O)C(C)C)cc1	8	x	-5.6	x	x	x	8%
Cc1cccc(C)c1NC(=O)Cn1c(CN2CCCCC2)nc2ccccc2c1=O	-1	-29%	5.2	-11	9%	1.5%	16%
Cc1ccc(N=C2NC(=O)/C(=C\c3ccsc3)S2)c(C)c1	-5	-2%	17	-38	-25%	1.7%	79µM*
CC1(C)CC2CC(C)(CN2C(=O)COC(=O)c2n[nH]c(=O)c3ccccc23)C1 (stereo unspecified)	2	-31%[inhibitor]	-1.5	12	-14%	-0.8%	-13%
N#CCSc1ncnc2sc3c(c12)CCC3	-1	u	0.6	-4	19%	-1.2%	-1%
CC1CCN(S(=O)(=O)c2cc(F)ccc2CN2C(=O)c3cccnc3C2=O)CC1	0	u	-5.1	2	12%	2.3%	12%
Cc1ccccc1Nc1cccc2nonc12	3	9%	u	-12	-8%	-1.7%	u
CN(C)S(=O)(=O)n1cnc(-c2ccccc2)c1-c1ccccc1	-10	23%	6.3	-12	7%	-3.2%	10%
O=C(Nc1ccc(Cl)c(Cl)c1)N(CCCN1CCOCC1)Cc1cccs1	-12	-21%	1.3	-9	-25%	-2.9%	6%
O=C(CN1C(=O)c2ccccc2S1(=O)=O)Nc1cc(S(=O)(=O)N2CCCCC2)ccc1Cl	-2	-30%	x	16	-10%	0.4%	x
O=C(NCc1ccc(F)cc1)N1CCc2ccccc2C1	24	8%[15.4 µM]	-12	-3	9%	x	11%
COc1ccc(CN(C)CC(=O)NC(=O)NC2CCCCC2)cc1	-14	u	x	-4	1%	1.4%	x
Nc1nnnn1CC(=O)N/N=C/c1cc([N+](=O)[O-])ccc1O	4	-17%[15.4 µM]	2.4	-10	-3%	x	-35%
N#CC1(NC(=O)CN2C(=O)NC3(CCCCCC3)C2=O)CCCCC1	6	18%	x	-4	13%	-1.6%	x
COc1cccc(NC(=O)CSc2nccn(-c3ccc4c(c3)OCCO4)c2=O)c1	5	3%	x	1	-21%	-4.4%	x
COc1ccc(C(=O)OCC(=O)NCc2ccco2)cc1OC	9	17%	-0.8	20	-3%	-19%	0%
OCCCNC(c1ccccc1)c1ccc(O)cc1 (stereo unspecified)	-1	4%	0.7	-4	-4%	-2.8%	0%
CCOC(=O)c1[nH]c2ccccc2c1NC(=O)CC(C)(C)C	-13	5%	-0.5	1	10%	3.9%	-7%
COc1ccc(N2CCN(C(=O)c3ccc(NS(=O)(=O)c4ccc(F)cc4)cc3)CC2)cc1	8	u	-2.1	10	3%	-0.4%	7%
O=C(Nc1ccccc1)c1cc(N2CCOCC2)nc2ccccc12	1	-12%	2.8	-17	5%	-5.3%	2%
Cc1cc(Cl)ccc1OC(C)C(=O)NCCCn1ccnc1 (stereo unspecified)	-12	3%[15.4 µM]	5.3	-27	13%	x	14%
Cc1nc2ccccc2nc1SCC(=O)c1ccccc1	u	u	1.7	-26	-8%	-0.4%	45µM*
COc1cc2c(cc1OC)C(COc1ccccc1OC)N(C(=O)C(C)(C)C)CC2 (stereo unspecified)	-2	-5%	1.8	6	-7%	x	14%
Cc1cccn2cc(CNS(=O)(=O)c3cccc(F)c3)nc12	-3	-54%[inhibitor]	3.8	-7	4%	-0.5%	12%
CC(C)C[C@H]1CN=C(Nc2ccccc2)N1CC1CCC(C)CC1 (stereo partly specified)	-10	x	-1.6	-17	9%	0.6%	18%
C=CCSc1nnc(NC(=O)CCNC(=O)c2ccccc2Cl)s1	x	-20%	x	-5	x	0.9%	x
CC(=O)N/N=C/c1ccc(OCCOc2ccc(Br)cc2)cc1	5	21%	0.8	-10	1%	1.7%	3%
CN=C1SC(C(=O)Nc2ccccc2Cl)CC(=O)N1c1ccc(OC(F)(F)Cl)cc1 (stereo unspecified)	-3	27%[15.4 µM]	-1.0	-4	-6%	x	4%
CCOC(=O)c1cnc2ccc(OCC)cc2c1NCCCN1CCOCC1	-14	-44%[inhibitor]	-11	18	-12%	-16%	4%
O=C(COc1ccccc1)N(Cc1ccco1)C1CCS(=O)(=O)C1 (stereo unspecified)	-5	-34%[inhibitor]	2.4	-7	3%	1.0%	-3%
Cc1ccc(C(=O)N/C(=C\c2ccccc2)C(=O)NCc2ccncc2)cc1	13	20%[15.4 µM]	-0.9	-1	7%	x	-1%
CC(C)c1ccc(NC(=O)c2csnn2)cc1	13	-10%	2.2	0	3%	-3.6%	-5%
CCCCN1C(=O)CN(CCc2ccccc2)C(=O)C1c1ccc(OC)cc1 (stereo unspecified)	-19	2%	0.7	-5	2%	0.1%	7%
COc1ccc(OC)c(NC(=O)NNC(=O)CCCOc2ccc(Cl)cc2C)c1	0	-2%[15.4 µM]	-5.2	-1	x	x	8%
COc1ccc(/C=C/c2nc3ccccc3n2Cc2ccccc2OC)cc1	-14	31%[15.4 µM]	4.5	-12	u	x	-22%
COC(=O)c1cc(NC(=O)c2cc(-c3ccccc3Cl)oc2C(F)(F)F)ccc1N1CCOCC1	-61	4%	-1.1	-5	-14%	-13%	4%
CCCSc1cc(N2CCCC2)nc(-c2ccccc2)n1	-1	3%	3.3	-8	-1%	-15%	15%
OC(COc1ccc2c(c1)CCC2)CN1CCN(c2cccc(Cl)c2)CC1 (stereo unspecified)	4	-35%[inhibitor]	1.9	-31	-14%	-2.6%	-8%
CCN(CC)c1ccc(/C=C2\C(=N)N3N=C(CC(=O)N4CCOCC4)SC3=NC2=O)cc1	-7	-3%	x	-2	-9%	-0.7%	2%
Cc1csc(NC(=O)CSc2ccc(-c3ccccc3)nn2)n1	-3	-2%[15.4 µM]	0.0	-5	-3%	-0.1%	16%
CCCCn1c(N)c(N(CCOC)C(=O)C2CCN(S(=O)(=O)c3ccc(C)cc3C)CC2)c(=O)[nH]c1=O	-2	10%	x	28	2%	-7.9%	x
Cc1ccc(NS(=O)(=O)c2ccc(N3CCN(c4ccc(O)cc4)CC3)c([N+](=O)[O-])c2)c(C)c1	u	-18%[15.4 µM]	1.6	-7	u	-4.2%	u
COc1ccc(N(CC(=O)Nc2cccc(C(F)(F)F)c2)S(=O)(=O)c2c(C)[nH]c(=O)[nH]c2=O)cc1	10	7%	x	-10	-3%	-1.2%	8%
CCOC(=O)C(CC)Sc1ncnc2c1nnn2-c1ccc(F)cc1 (stereo unspecified)	-11	-16%	-1.8	-4	0%	-0.3%	5%
O=C(O)c1ccc(-n2nnnc2SCc2ccccc2F)cc1	x	2%	8.2	-8	-1%	-1.7%	-8%
COc1cc(C(c2sc3nc(C)nn3c2O)N2CC(C)OC(C)C2)cc(OC)c1OC (stereo unspecified)	-13	-38%[inhibitor]	1.8	-1	0%	-2.4%	19%
COc1ccc(C2CC(c3ccccc3OC(=O)/C=C/c3ccccc3)=NN2C(C)=O)cc1 (stereo unspecified)	-12	21%	3.2	-4	u	-1.8%	-2%
Fc1cnc(Cl)nc1N1CCN(c2ccccc2)CC1	-2	15%[15.4 µM]	1.0	-2	-1%	x	0%
Nc1nonc1-c1nc2ccccc2n1Cc1ccc(F)cc1	-18	-8%	u	-9	-26%	-3.5%	u
C=CCN1C(=NC(=O)CC)SC2CS(=O)(=O)CC21 (stereo unspecified)	-4	-16%	-1.1	-4	5%	1.2%	18%
COc1ccc(C(=O)NNC(=O)c2cc3cc([N+](=O)[O-])ccc3oc2=O)cc1OC	17	u	6.0	4	6%	-1.3%	36%[activator]
O=C(Nc1ccc2nc(-c3ccccn3)[nH]c2c1)C1CCCCC1	11	33%	6.1	-8	24%	-27%	-13%
Cc1ccc(Oc2ccc(NC(=O)Cn3ccsc3=N)cc2)cc1	3	-2%	0.9	-14	5%	-0.9%	-12%

Structures from the list above that have a tert-butyl group:
SMILES	TRPV1 PAM	gsp ag	Menin-MLL FL inh	D2 potentiator	gsp antagonist	ClpP mod	Sfp inh
CC(C)(C)c1ccc(S(=O)(=O)NCc2ccc(C(=O)N3CCOCC3)cc2)cc1	6	-9%	4.4	-1	-3%	0.8%	8%
CCOC(=O)c1[nH]c2ccccc2c1NC(=O)CC(C)(C)C	-13	5%	-0.5	1	10%	3.9%	-7%
COc1cc2c(cc1OC)C(COc1ccccc1OC)N(C(=O)C(C)(C)C)CC2 (stereo unspecified)	-2	-5%	1.8	6	-7%	x	14%

(listing goes on)
SMILES	TRPV1 PAM	gsp ag	Menin-MLL FL inh	D2 potentiator	gsp antagonist	ClpP mod	Sfp inh
Cc1c(C)c2ccc(OCC(=O)N3CCC(C(=O)O)CC3)c(C)c2oc1=O	6	x	-6.8	-10	9%	4.8%	20%
Cc1ccccc1NC(=O)C1CCCN(c2nnc(N3CCCC3=O)s2)C1 (stereo unspecified)	0	-49%[inhibitor]	-0.4	-5	-1%	0.8%	16%
NC(=O)CC(NC(=O)Cc1ccc(Br)cc1)c1ccc(NCCN2CCCC2)c([N+](=O)[O-])c1 (stereo unspecified)	24	u	-7.3	-6	6%	-0.3%	11%
Cc1cccc(NC(=S)N(Cc2ccco2)C(C)c2cccs2)c1 (stereo unspecified)	11	15%	-0.5	-8	u	0.7%	-2%

High-throughput results from PubChem BioAssay.
